Screens deposited in PubChem BioAssay by National Center for Advancing Translational Sciences (NCATS).
Rango release inh = inhibition of RanGTP-driven Rango-importin beta dissociation; O95149+P62826; Biochemical FRET Rango-importin beta, RanGTP-induced dissociation; Potency, µM (series often up to 46.1 µM), inactives show at the top dose activity change, negative = inhibition; 340,000 tested, 0.071% active; active means falling FRET ratio curve, often poorly fitted, with flat reads before Ran was added; inconclusive means other falling curves, or compound fluorescence or quenching; inactive means flat or rising ratio curve;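 also: potency is read from the fitted curve at half-maximal effect; % of control where 0% means no effect; nearly all actives have a fitted effect of over 45% in size; -100% = wells without RanGTP and RCC1; the record marks most hits as doubtful in a second field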
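Rango FRET biosensor (snurportin-1 IBB flanked by N-terminal EYFP and C-terminal CFP10) at 0.1 uM, with 0.25 uM importin beta in PBS, 1mM DTT, 0.02% Tween-20, 0.1% BSA. 0.6 uM Ran, 2mM GTP and 0.2 uM RCC1 were then added for 45 min at room temperature. Inhibition read as loss of FRET rise.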
GLA inh pH 4.5 = inhibitors of human alpha-galactosidase A at pH 4.5. P06280. purified enzyme, 4-MU-alpha-Gal fluorescence, pH 4.5. activity change, negative = inhibition, % at 105 µM. 230,000 tested, under 10 active. AID 1467; inconclusive = small, poorly fitted or top-dose-only inhibition, or a rising curve; inactive = flat fitted curve, though single readings scatter; no compound was filed as active;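 also: 0% = full activity with enzyme and -100% = basal without enzyme; dose as in the result columns while the protocol names 77 µM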
miR-21 FLuc = miR-21 reporter, rising signal | HeLa miR-21 FLuc reporter, luciferase, 48 h | Potency, µM (top dose mostly 38.3 µM), without a hit: top-dose reporter change, positive = more light | 340,000 tested, under 10 active; active = well fitted rising curve with a large enough effect; inconclusive = small, poorly fitted or top-dose-only effect; inactive = no such curve, though single readings can be large or run the other way;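 also: % of control where 0% means no effect; miR-21 action dims this reporter so a rising signal means less miR-21 action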
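Compounds were titrated across several concentrations (up to approximately 40 uM) and incubated 48 hours with HeLa miR-21-FLuc reporter cells (miR-21 target sequence downstream of FLuc, endogenous miR-21). Readout was firefly luciferase luminescence after lytic detection reagent.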
Rango-impB inh = Rango-importin beta binding inhibition; 340,000 tested, 0.031% active; AID 540263; Q14974; Rango CFP/YFP FRET sensor + importin beta, 45 min; Potency, µM (doses to about 92.2 µM), for the others: top-dose inhibition of complex formation; active = rising FRET ratio curve, often small or poorly fitted; inconclusive = mostly compound fluorescence or quenching in the first reads; inactive = flat curves in all reads;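 also: potency is read from the fitted curve at half-maximal effect; 0% = DMSO wells and 100% = buffer wells lacking importin beta; nearly all actives have a fitted effect of over 15% in size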
Target sequence (Q14974 whole entry, looked up): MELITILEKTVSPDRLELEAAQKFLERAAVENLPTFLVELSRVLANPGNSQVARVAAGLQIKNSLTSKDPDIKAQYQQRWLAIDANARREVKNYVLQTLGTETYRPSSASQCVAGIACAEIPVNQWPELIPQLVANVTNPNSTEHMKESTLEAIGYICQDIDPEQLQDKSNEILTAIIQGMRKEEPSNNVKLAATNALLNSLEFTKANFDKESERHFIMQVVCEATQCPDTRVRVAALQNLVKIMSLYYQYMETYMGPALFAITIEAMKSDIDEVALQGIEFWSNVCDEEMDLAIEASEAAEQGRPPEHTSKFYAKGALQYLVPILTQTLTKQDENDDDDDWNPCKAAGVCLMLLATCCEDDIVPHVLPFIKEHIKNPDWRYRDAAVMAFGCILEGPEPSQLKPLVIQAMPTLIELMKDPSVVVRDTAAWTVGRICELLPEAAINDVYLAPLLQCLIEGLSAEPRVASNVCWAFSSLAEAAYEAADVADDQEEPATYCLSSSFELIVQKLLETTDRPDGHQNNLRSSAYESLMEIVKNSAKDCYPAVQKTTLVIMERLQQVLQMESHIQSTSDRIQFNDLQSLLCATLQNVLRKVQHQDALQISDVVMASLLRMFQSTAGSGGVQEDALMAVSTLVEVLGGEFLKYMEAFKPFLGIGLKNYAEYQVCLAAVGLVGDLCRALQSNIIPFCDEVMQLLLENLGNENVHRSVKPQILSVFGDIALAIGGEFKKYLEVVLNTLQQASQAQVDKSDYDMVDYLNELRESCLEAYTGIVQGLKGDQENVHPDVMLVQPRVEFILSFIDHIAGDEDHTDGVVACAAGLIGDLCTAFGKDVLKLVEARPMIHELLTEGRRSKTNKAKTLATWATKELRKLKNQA
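FRET biosensor Rango (snurportin 1 IBB between N-terminal EYFP and C-terminal Cerulean), 50 nM in PBS/1 mM DTT/0.02% Tween-20/0.1% BSA, preincubated 5 min RT with compound; 0.125 microM importin beta added, 45 min RT, CFP/YFP FRET ratio read.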
An asterisk follows results filed as active; & = joins results of further samples. This is a subset; count on the stated rates, not on these rows.

Screening O=S(=O)(c1ccccc1)[C@@]1(c2ccccc2)C[C@@H]2ON=C(c3cccc(-c4ccccc4)c3)[C@@H]2C1 returned Rango release inh 7.5% and Rango-impB inh -1.2%.
Screening CCc1cc2c(SCC(=O)NCC3CCCO3)ncnc2s1 (stereo not drawn) returned Rango release inh 0.8% and Rango-impB inh 0.2%.
Screening CCC(=O)NC(=S)Nc1cccc(NC(=O)c2ccco2)c1 returned Rango release inh 14.3%, GLA inh pH 4.5 7.2, miR-21 FLuc -5.1% and Rango-impB inh -4.9%.
Cc1cc(C)c(C)c(OCCOCCN2CCN(C)CC2)c1 was read as Rango release inh 12.6%, GLA inh pH 4.5 9.6, miR-21 FLuc -8.8% and Rango-impB inh 0.7%.
COc1cccc(CN2C(=O)CCC2(C)C(=O)NC2CCCCC2)c1 (stereo not drawn) was read as Rango release inh -6.9%, GLA inh pH 4.5 8.3, miR-21 FLuc -8.5% and Rango-impB inh -2.4%.
Screening CCn1c(=O)c2sccc2n2c(CCCC(=O)NCCc3ccc(S(N)(=O)=O)cc3)nnc12 returned Rango release inh -14.4%, miR-21 FLuc -0.2% and Rango-impB inh 0.9%.
For COc1ccc(C(=O)Nc2ccccc2C(=O)N/N=C/c2ccccn2)cc1OC the results were Rango release inh 22.4%, GLA inh pH 4.5 1.6, miR-21 FLuc -2.0% and Rango-impB inh 0.1%.
Screening CCOC(=O)c1ccccc1NC(=O)CSc1ccc(-c2ccccn2)nn1 returned Rango release inh 5.7%, miR-21 FLuc 1.7% and Rango-impB inh 4.7%.
`CCOc1ccc(S(=O)(=O)N2CCCCC2)cc1NC(=O)C1=COCCO1` gave Rango release inh 0.2% and Rango-impB inh -0.3%.
For Cc1ccc(CNC(=O)C(=O)NCCC2CCCCN2S(=O)(=O)c2ccccc2)cc1 (stereo not drawn) the results were Rango release inh -5.1% and Rango-impB inh -0.4%.
For Cn1cc(CN2CCC(n3nccc3NC(=O)C3CCCC3)CC2)cn1 the results were Rango release inh 4.2%, miR-21 FLuc 0.2% and Rango-impB inh -1.4%.
CCOc1ccc(N(CC(=O)Nc2nccs2)S(=O)(=O)c2c(C)noc2C)cc1 was read as Rango release inh -5.2%, GLA inh pH 4.5 -2.2, miR-21 FLuc 0.1% and Rango-impB inh 0.2%.
For O=C(NCCCN1CCOCC1)c1cc(-c2ccc(F)cc2)no1 the results were Rango release inh 7.1%, miR-21 FLuc -23.7% and Rango-impB inh -1.2%.
`Nc1ccn(CC(=O)NCc2ccccc2)c(=O)n1` gave Rango release inh 4.5% and Rango-impB inh 2.7%.
Screening CCOc1cc(NC(=O)c2cccs2)c(OCC)cc1NC(=O)CCC(=O)NCC1CCCO1 (stereo not drawn) returned Rango release inh 26.8%, GLA inh pH 4.5 -0.2, miR-21 FLuc -1.6% and Rango-impB inh -3.3%.
Screening O=C(Nc1ccc(F)cc1F)N1CCN(c2ncccn2)CC1 returned Rango release inh 2.9%, GLA inh pH 4.5 9.5, miR-21 FLuc -7.2% and Rango-impB inh 4.4%.
C=CCSc1nnc(C)n1-c1ccc(Cl)cc1 was read as Rango release inh -0.2%, GLA inh pH 4.5 -7.4, miR-21 FLuc -4.6% and Rango-impB inh 5.2%.
Screening CCN(CCCNC(=O)COc1cc(=O)n(CC)c2ccccc12)Cc1ccccc1 returned Rango release inh -10.3%, GLA inh pH 4.5 -22.1, miR-21 FLuc 4.4% and Rango-impB inh -2.7%.
For Cc1ccccc1NC(=S)N(Cc1cccs1)C1CCCC1 the results were Rango release inh -7.9%, GLA inh pH 4.5 0.6, miR-21 FLuc 1.7% and Rango-impB inh 0.2%.
`CCOc1ccccc1NC(=O)C1CCC(CNc2c(N3CCOCC3)c(=O)c2=O)CC1` (stereo not drawn) gave Rango release inh -2.8%, GLA inh pH 4.5 -8.0, miR-21 FLuc -1.5% and Rango-impB inh -4.4%.
For O=C(Nc1ccc2c(c1)CCC2)Nc1ccc(F)cc1F the results were Rango release inh 3.4%, miR-21 FLuc -48.2% and Rango-impB inh 0.4%.
COc1ccc(C(=O)OCC(=O)NCCCc2ccccc2)cc1OC was read as Rango release inh 0.2%, miR-21 FLuc 8.2% and Rango-impB inh -2.6%.
`Cc1noc(NC(=O)c2ccc(F)cc2)c1C#N` gave Rango release inh 16.6%, GLA inh pH 4.5 4.3, miR-21 FLuc -13.9% and Rango-impB inh inconclusive.
`Cc1cc(C)nc(N2N=C(c3ccccc3)CC2=O)n1` gave Rango release inh -5.2%, GLA inh pH 4.5 -6.5, miR-21 FLuc -23.6% and Rango-impB inh 0.7%.
For O=C(CCN1C(=O)c2ccccc2C1=O)OCN1C(=O)c2ccccc2C1=O the results were Rango release inh -5.1%, GLA inh pH 4.5 3.7, miR-21 FLuc -1.7% and Rango-impB inh 0.2%.
For CCCCn1c(N)c(N(CCOC)C(=O)c2ccc(NC3CC3)c([N+](=O)[O-])c2)c(=O)[nH]c1=O the results were Rango release inh 2.4% and Rango-impB inh -0.3%.
Screening COc1ccc(C(=O)Nc2nnc(S(=O)(=O)Cc3ccccc3)s2)cc1 returned Rango release inh 18.6%, miR-21 FLuc -11.5% and Rango-impB inh -0.4%.
`C1CNCCOCCNCCN1` gave Rango release inh 8.0%, GLA inh pH 4.5 -15.2, miR-21 FLuc -3.1% and Rango-impB inh 0.0%.
Screening COc1ccc(CNC(=O)C(C#N)c2nc3ccccc3nc2N2CCCC2)cc1 (stereo not drawn) returned Rango release inh inconclusive, GLA inh pH 4.5 -11.0, miR-21 FLuc -6.1% and Rango-impB inh inconclusive.
Screening CCC1CCCCN1C(=O)CSc1nc2c(cnn2-c2ccc(C)cc2)c(=O)[nH]1 (stereo not drawn) returned Rango release inh 9.6%, GLA inh pH 4.5 1.5, miR-21 FLuc 0.0% and Rango-impB inh inconclusive.

Continued; it opens with the 2 that closed the last part.
Screening COc1ccc(CNC(=O)C(C#N)c2nc3ccccc3nc2N2CCCC2)cc1 (stereo not drawn) returned Rango release inh inconclusive, GLA inh pH 4.5 -11.0, miR-21 FLuc -6.1% and Rango-impB inh inconclusive.
Screening CCC1CCCCN1C(=O)CSc1nc2c(cnn2-c2ccc(C)cc2)c(=O)[nH]1 (stereo not drawn) returned Rango release inh 9.6%, GLA inh pH 4.5 1.5, miR-21 FLuc 0.0% and Rango-impB inh inconclusive.
O=C(COC(=O)c1cc(-c2cccs2)nn1-c1ccccc1)Nc1ccc(F)c([N+](=O)[O-])c1 was read as Rango release inh 2.1%, GLA inh pH 4.5 -1.2, miR-21 FLuc -2.0% and Rango-impB inh -3.8%.
For COc1ccc(-n2nc(C(=O)NCC(=O)NCC3CCCO3)c3ccccc3c2=O)cc1 (stereo not drawn) the results were Rango release inh 7.8%, GLA inh pH 4.5 -1.9, miR-21 FLuc -1.0% and Rango-impB inh 0.7%.
COc1ccc(-c2nc(CSCC(=O)NCc3ccc4c(c3)OCO4)c(C)o2)cc1OC was read as Rango release inh -2.5%, GLA inh pH 4.5 3.2, miR-21 FLuc -12.8% and Rango-impB inh -0.1%.
Screening O=C(CN1C(=O)NC2(CCCc3ccccc32)C1=O)Nc1cc(F)ccc1F (stereo not drawn) returned Rango release inh -3.8% and Rango-impB inh -0.9%.
O=C(CSc1ccc(-c2ccc(-n3cccn3)cc2)nn1)Nc1ccccc1F was read as Rango release inh -12.5% and Rango-impB inh 0.6%.
Screening Cc1cc(C2C(C#N)=C(N)OC3=C2C(=O)CC(C)(C)C3)c(C)s1 (stereo not drawn) returned Rango release inh 13.4%, GLA inh pH 4.5 12.0, miR-21 FLuc 0.3% and Rango-impB inh inconclusive.
Nc1nonc1-n1nnc(C(=O)N/N=C/c2cccc(F)c2)c1-c1ccc2c(c1)OCO2 was read as Rango release inh -11.4%, miR-21 FLuc -0.3% and Rango-impB inh 3.5%.
O=C(N/N=C/c1ccc(O)cc1O)c1ccc(NC(=O)C2CCCCC2)cc1 was read as Rango release inh inconclusive, miR-21 FLuc 15.8% and Rango-impB inh inconclusive.
Screening O=C(COC(=O)c1cccc(S(=O)(=O)N2CCN(c3ccc(F)cc3)CC2)c1)NCC1CCCO1 (stereo not drawn) returned Rango release inh 36.7%, GLA inh pH 4.5 -6.5, miR-21 FLuc 1.5% and Rango-impB inh 3.6%.
For Cc1cc(C)cc(NC(=O)CCNS(=O)(=O)c2ccc3c(c2)oc(=O)n3C)c1 the results were Rango release inh 0.9%, GLA inh pH 4.5 -0.9, miR-21 FLuc -5.4% and Rango-impB inh -2.4%.
Screening COC(=O)c1ccc(NS(=O)(=O)c2ccc3c(c2)oc(=O)n3C)cc1 returned Rango release inh inconclusive, GLA inh pH 4.5 -10.6, miR-21 FLuc -27.9% and Rango-impB inh -0.7%.
`O/C=c1\ccc2cccc3nc(C(F)(F)F)nc1c23` gave Rango release inh inconclusive, miR-21 FLuc -0.2% and Rango-impB inh inconclusive.
`COc1ccc(CNC(=S)Nc2ccccc2F)cc1` gave Rango release inh 14.1%, miR-21 FLuc -10.7% and Rango-impB inh -1.9%.
For COc1ccc(NC(=O)CN2C(=O)COc3ccc(S(=O)(=O)N4CCOCC4)cc32)cc1 the results were Rango release inh inconclusive, miR-21 FLuc -3.8%&0.6% and Rango-impB inh -2.2%.
COc1ccccc1C(=O)Nc1ccc(-c2nnn(CC(=O)NCc3ccco3)n2)cc1 was read as Rango release inh -19.5%, GLA inh pH 4.5 3.7, miR-21 FLuc -15.5% and Rango-impB inh 2.6%.

The closing 3 compounds of the section before lead into the next:
`COc1ccc(CNC(=S)Nc2ccccc2F)cc1` gave Rango release inh 14.1%, miR-21 FLuc -10.7% and Rango-impB inh -1.9%.
For COc1ccc(NC(=O)CN2C(=O)COc3ccc(S(=O)(=O)N4CCOCC4)cc32)cc1 the results were Rango release inh inconclusive, miR-21 FLuc -3.8%&0.6% and Rango-impB inh -2.2%.
COc1ccccc1C(=O)Nc1ccc(-c2nnn(CC(=O)NCc3ccco3)n2)cc1 was read as Rango release inh -19.5%, GLA inh pH 4.5 3.7, miR-21 FLuc -15.5% and Rango-impB inh 2.6%.
CCOC(=O)C1CCCN(C(=O)c2ccc3ncsc3c2)C1 (stereo not drawn) was read as Rango release inh 6.8% and Rango-impB inh 0.8%.
For Cc1cc(C)c(C(=O)CN2C(=O)C(=O)N(C3CCCC3)C2=O)cc1C the results were Rango release inh 2.5% and Rango-impB inh -2.2%.
For Cc1ccc(NC(=O)CN2C(=O)S/C(=C\c3ccc(-c4cccc(C(=O)O)c4C)o3)C2=O)cc1 the results were GLA inh pH 4.5 -2.6 and miR-21 FLuc 1.0%.
COc1ccc(NC(=O)c2ccc(CN3CCc4ccccc4C3)cc2)cc1OC was read as Rango release inh -5.1%, miR-21 FLuc 5.7% and Rango-impB inh -1.2%.
For O=C(NC1CCCC1)C(c1ccncc1)N(C(=O)Cc1cccs1)c1cccc(F)c1 (stereo not drawn) the results were Rango release inh -14.9%, miR-21 FLuc 1.1% and Rango-impB inh 0.2%.
`N#Cc1sc(NCc2ccccc2)nc1Cl` gave Rango release inh -1.5%, GLA inh pH 4.5 -9.2, miR-21 FLuc -20.4% and Rango-impB inh -0.8%.
For NC(=O)CN1C(=O)NC2(CCOc3ccccc32)C1=O (stereo not drawn) the results were Rango release inh 5.7%, miR-21 FLuc 3.6% and Rango-impB inh 5.7%.
For CC(C)CCNC(=O)COC(=O)/C=C/c1ccc2ccccc2n1 the results were Rango release inh 1.5%, GLA inh pH 4.5 4.5, miR-21 FLuc -2.9% and Rango-impB inh 3.0%.
For O=C(Nc1ccc(Br)cc1)C1CC(O)CN1C(=O)OCc1ccccc1 (stereo not drawn) the results were Rango release inh 6.1%, miR-21 FLuc 1.3% and Rango-impB inh -2.8%.
For COc1ccc(CNC(=S)Nc2cccc(C)c2C)cc1 the results were Rango release inh -1.4%, GLA inh pH 4.5 -0.9, miR-21 FLuc -18.8% and Rango-impB inh 2.4%.
COc1ccccc1CN(C)C(=O)c1ccc(S(=O)(=O)Nc2c(C)n(C)n(-c3ccccc3)c2=O)cc1 was read as Rango release inh 4.4% and Rango-impB inh -0.2%.
Screening CC(=O)/C(=N\Nc1ccc(Cl)cc1Cl)Sc1nnc(-c2ccccc2)n1-c1ccccc1 returned Rango release inh 2.7%, GLA inh pH 4.5 3.3, miR-21 FLuc 2.1% and Rango-impB inh -1.0%.
